# Sfp PPTase inh: qHTS Assay for Inhibitors of Bacillus subtilis Sfp phosphopantetheinyl transferase (PPTase); Biochemical Sfp PPTase activity, qHTS; 4'-phosphopantetheinyl transferase ffp (Bacillus subtilis), Q9F4F7; actives 3.5% (n = 310,000); Potency, µM, for inactives: max response, negative = inhibition, actives largely listed as inhibitors; AID 1490, 2009; active means well fitted inhibition curve with a large enough effect; inconclusive means small, poorly fitted or top-dose-only effect, or another doubt; inactive means no such curve, though single readings can be large or run the other way;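 further: the enzyme is Sfp with the accession as filed and its product quenches rhodamine fluorescence; potency means the concentration at half of the fitted maximal effect; 0% = enzyme reaction without inhibitor and -100% = no enzyme wells; top concentration of the series not given in the record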
#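 Reaction rates are the 30-min fluorescence difference (ex 525, em 598 nm) in wells containing 15 nM Sfp, 5 uM rhodamine-CoA and 12.5 uM BHQ-2-YbbR at pH 7.6 with 10 mM MgCl2.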
# TRPV1 PAM: HTS Assay for Compounds that Act as Potentiators of the Vanilloid Receptor 1; Transient receptor potential cation channel subfamily V member 1 (Homo sapiens), Q8NER1; TRPV1-expressing cells, Fluo-8 calcium influx, capsaicin EC20 potentiation; host cell line not named in the record; control for the full effect not named in the record; potentiation, % at 8.33 µM; actives 0.02% (n = 320,000); AID 540277, 2011; active means potentiation above 80%; inconclusive means 30% to 80%; inactive means below 30%; further: 0% is about no effect
# Target sequence (Q8NER1 whole entry, looked up): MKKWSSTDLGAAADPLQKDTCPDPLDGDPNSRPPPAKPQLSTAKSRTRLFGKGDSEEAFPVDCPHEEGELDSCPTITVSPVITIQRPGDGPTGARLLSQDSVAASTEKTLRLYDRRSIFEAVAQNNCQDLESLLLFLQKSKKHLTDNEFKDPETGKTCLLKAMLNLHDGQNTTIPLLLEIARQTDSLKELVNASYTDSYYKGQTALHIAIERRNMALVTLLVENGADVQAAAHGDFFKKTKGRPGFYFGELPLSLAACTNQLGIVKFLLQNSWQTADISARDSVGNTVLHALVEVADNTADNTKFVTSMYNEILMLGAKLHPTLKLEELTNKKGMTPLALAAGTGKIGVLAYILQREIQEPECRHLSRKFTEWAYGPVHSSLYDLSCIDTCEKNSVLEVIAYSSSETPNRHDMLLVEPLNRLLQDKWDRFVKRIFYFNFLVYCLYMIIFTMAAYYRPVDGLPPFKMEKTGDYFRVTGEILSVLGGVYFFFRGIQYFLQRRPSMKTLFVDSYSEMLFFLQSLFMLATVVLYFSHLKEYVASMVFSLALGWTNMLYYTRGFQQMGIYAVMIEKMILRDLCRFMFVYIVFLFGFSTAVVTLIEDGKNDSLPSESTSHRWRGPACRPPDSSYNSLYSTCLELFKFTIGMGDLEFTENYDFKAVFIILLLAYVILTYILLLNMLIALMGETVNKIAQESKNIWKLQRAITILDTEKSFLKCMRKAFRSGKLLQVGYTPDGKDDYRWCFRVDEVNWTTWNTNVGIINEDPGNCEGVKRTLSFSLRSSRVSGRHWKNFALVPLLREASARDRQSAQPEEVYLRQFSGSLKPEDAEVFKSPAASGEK
#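 TRPV1-expressing cells were cultured overnight at 35.5C and loaded with Fluo-8 calcium dye for 40 to 90 min at room temperature. After a 10 s baseline, compound was added and calcium influx was read kinetically for 3 min (ex 480/em 520 nm).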
# The depositor's hits bear a star; i = inactive; ? = inconclusive; & = joins results of further samples. These rows are one share of the data; the hit share may differ from the screen's.
# Values run as follows: Sfp PPTase inh, TRPV1 PAM
O=C1OC2(CCCCC2)CC2=C1C1O[C@](c3ccsc3)(Cc3c1ccc1ccccc31)O2
    3%, i
C[C@@H]1CN(CCCn2c3ccccc3c3ccccc32)C[C@H](C)N1
    -24%&-24%, 11
O=C(Nc1ncccn1)c1ccc([N+](=O)[O-])cc1Cl
    -1%, 0
O=C(c1cc([N+](=O)[O-])ccc1N1CCOCC1)N1CCN(c2ccccc2)CC1
    6%, -3
Cc1cccc(/C=N/NC(=O)c2ccc3c(c2)OCCO3)c1O
    4%, -17
CC(COc1ccc(C(C)C)cc1)NC(=O)c1ccc(Br)o1 (stereo unspecified)
    -2%, -15
COc1ccc(C(=O)Nc2ccc(/C(C)=N/NC(=O)c3ccncc3)cc2)cc1
    50µM*, -2
COc1cccc(C(=O)COc2ccc3c(C)c(Cc4ccccc4)c(=O)oc3c2C)c1
    -1%, 16
CCSc1nnc(NC(=O)C2CCN(S(=O)(=O)c3c(C)c(C)cc(C)c3C)CC2)s1
    11%, 7
COc1cc(C2CC(=O)N3CN(c4ccccc4C)CSC3=C2C#N)cc(OC)c1OC (stereo unspecified)
    2.8µM*, -2
CCn1c2ccccc2c2cc(NC(=O)c3coc(=O)c(Br)c3)ccc21
    2%, 10
CCCCCCNC(=O)N[C@H](C(=O)NCCC[C@H]1CN2C(=NC[C@H]2C)N1CCC(c1ccccc1)c1ccccc1)C(C)O (stereo partly specified)
    2.2µM*, 22
CC(C)OCCCNC(=O)C(NS(=O)(=O)c1ccc2c(c1)c(=O)n(C)c(=O)n2C)c1ccccc1 (stereo unspecified)
    1%, 4
O=C(CCCCCNc1nc(=S)[nH]c2ccccc12)NCc1ccccc1Cl
    -17%, 22
CN1CCN(C(CC(=O)Nc2cccc(O)c2)C(=O)O)CC1 (stereo unspecified)
    18%, 0
NC(=O)CC[C@@H]1NC(=O)[C@H](CO)NC(=O)c2cc([N+](=O)[O-])cc(I)c2NCC[C@@H](C(N)=O)NC(=O)[C@H](Cc2ccc(O)cc2)NC1=O
    -21%, 1
CCN1C(=O)[C@H]2[C@H]3[C@H](O)[C@H](O)C/C(=N\O[C@H](C)c4cn([C@H](CO)Cc5ccccc5)nn4)[C@@H]3CC[C@H]2C1=O
    18%, 16
COc1ccc(COCC(O)CN2CCCC(C(F)(F)F)C2)cc1 (stereo unspecified)
    ?, -5
COC(=O)[C@@]1(Cc2ccc(OC)cc2)[C@H]2c3cc(C(=O)N4CCCC4)n(CCN4CCNC4=O)c3C[C@H]2CN1C(=O)c1ccccc1
    -11%, 4
CCCCCCCC1=CC2=CC(=O)C(C)(OC(C)=O)C(=O)C2=CN1CCc1ccccc1 (stereo unspecified)
    -6%&5%, 1

# Single values from the list:
# Sfp PPTase inh, O=C1OC2(CCCCC2)CC2=C1C1O[C@](c3ccsc3)(Cc3c1ccc1ccccc31)O2 stands at 3%
# TRPV1 PAM, CC(C)OCCCNC(=O)C(NS(=O)(=O)c1ccc2c(c1)c(=O)n(C)c(=O)n2C)c1ccccc1 (stereo unspecified) stands at 4
# TRPV1 PAM, COc1ccc(COCC(O)CN2CCCC(C(F)(F)F)C2)cc1 (stereo unspecified) stands at -5
# Sfp PPTase inh, NC(=O)CC[C@@H]1NC(=O)[C@H](CO)NC(=O)c2cc([N+](=O)[O-])cc(I)c2NCC[C@@H](C(N)=O)NC(=O)[C@H](Cc2ccc(O)cc2)NC1=O stands at -21%

# Following part:
# Values run as follows: Sfp PPTase inh, TRPV1 PAM
CCN1CCc2c(OCC(=O)Nc3ccc4c(c3)OCCO4)cccc2C1=O
    20%, -1
COc1ccc(CNC(=O)CSc2nc3[nH]ncc3c(=O)n2-c2ccccc2Br)cc1
    24%, 15
NC(Cc1ccc(Oc2ccc(O)cc2)cc1)C(=O)O (stereo unspecified)
    0%, -19
Cc1ccc2nc(N3C(=O)C(O)=C(C(=O)c4ccco4)C3c3ccc(O)cc3)sc2c1 (stereo unspecified)
    -8%, -3
COC(=O)c1cc2sc(Cl)cc2n1Cc1nc(-c2cccc(C)c2)oc1C
    ?, -17
O=C(CCC(=O)N(CC(=O)NC1CCCC1)Cc1ccc2c(c1)OCO2)Nc1nccs1
    -3%, -6
COc1ccc([C@]23Cc4c(ccc5ccccc45)C(O2)C2=C(CCCC2=O)O3)cc1
    5%, i
O=C(N/N=C/c1cc([N+](=O)[O-])ccc1O)c1cccc2ccccc12
    3%, -4
COc1cc(/C=C2/C(=N)N3C(=NC2=O)SN=C3S(C)(=O)=O)ccc1OS(=O)(=O)c1ccccc1
    -18%, 6
COC(=O)Sc1nnc(-c2ccc(Br)cc2)o1
    -27%, 1
O=C(Nc1ccnn1C1CCN(Cc2cc3ccccc3[nH]2)CC1)C1CCOC1 (stereo unspecified)
    1%, 10
O=C1CCCC2=C1C(c1ccccc1)C1=C(CCCC1=O)O2
    -5%, -2
COc1ccc(-c2ccc(-c3noc(-c4ccc(OC)c(OC)c4)n3)c(OC)n2)cc1
    -1%, 5
COc1ccc(OC)c(NC(=O)CC(NCCC2=CCCCC2)C(=O)O)c1 (stereo unspecified)
    -12%, -2
Cc1nnc2ccc(-c3ccc(NC(=O)c4ccc(Cl)nc4)cc3)nn12
    12%, -14
CCOC(=O)N1CCN(C(=O)CSc2ccc(-c3cccnc3)nn2)CC1
    17%, ?
Cc1ccc(NC(=O)C(=O)NCc2ccc(/C=N/NC(=O)c3c(C)nc4cc(C)ccn34)o2)cc1
    ?, -8
FC(F)Oc1ccc(/C=N/N2CCCCC2)c(OC(F)F)c1
    -1%, -10
O=C(CCNS(=O)(=O)c1cccc2nsnc12)N1CCN(c2ccccn2)CC1
    0%, -10
COc1ccc(/C(C)=N/Nc2cc(C(F)(F)F)ccc2Cl)c(OC)c1
    4%, 18

# Looked up by compound from the entries so far, 3 records:
# Values run as follows: Sfp PPTase inh, TRPV1 PAM
COc1ccc(/C(C)=N/Nc2cc(C(F)(F)F)ccc2Cl)c(OC)c1
    4%, 18
COC(=O)Sc1nnc(-c2ccc(Br)cc2)o1
    -27%, 1
CCOC(=O)N1CCN(C(=O)CSc2ccc(-c3cccnc3)nn2)CC1
    17%, ?

# Another view of 3 compounds above.
smiles | Sfp PPTase inh | TRPV1 PAM
CCN1CCc2c(OCC(=O)Nc3ccc4c(c3)OCCO4)cccc2C1=O | 20% | -1
COc1ccc(CNC(=O)CSc2nc3[nH]ncc3c(=O)n2-c2ccccc2Br)cc1 | 24% | 15
NC(Cc1ccc(Oc2ccc(O)cc2)cc1)C(=O)O (stereo unspecified) | 0% | -19

# Further results
# Values run as follows: Sfp PPTase inh, TRPV1 PAM
Cc1cc(C)c(S(=O)(=O)c2ccccc2Cl)c(Cl)n1
    -5%, -18
O=S(=O)(c1ccc2c(c1)OCCO2)N1CCN(c2nc(-c3cccnc3)nc3ccccc23)CC1
    10%, 4
COC(=O)c1cc2c(=O)n3ccccc3nc2n(C)c1=N
    -6%, 10
COc1cnc(-c2ccccn2)nc1Oc1cccc(C(F)(F)F)c1
    0%, -6
CCC(CC)C(=O)Nc1cccc(SC)c1
    0%, -3
COc1ccc(C2c3c(nc[nH]c3=O)Oc3nc[nH]c(=O)c32)cc1
    5%, 2
COc1cc2c(cc1OC)C1O[C@](CCCCN3C(=O)c4ccccc4C3=O)(C2)OC2=C1C(=O)CC(C)(C)C2
    -14%, i
COc1ccccc1/C=C/C=N/NC(=O)c1ccc2nc[nH]c2c1
    9%, 5
CC(=O)Oc1ccc(N2C(=O)C3C(C2=O)C2(C)C=CC3(C)O2)cc1 (stereo unspecified)
    7.9µM*, 1
CCCCCCC12CCC(C(=O)O)(CC1)CC2
    17%, 1
O=c1c(C=NCCN2CCNCC2)c(-c2ccccc2)[nH]n1-c1ccc([N+](=O)[O-])cc1
    -2%, 10
COc1ccc(/C(O)=C2/C(=O)C(=O)N(CCCN(C)C)C2c2cccnc2)cc1 (stereo unspecified)
    13%, -3
O=C1CSC(=S)N1c1ccc(F)cc1
    -16%, ?
Cc1[nH][nH]c(=O)c1C(c1ccc(-c2ccc(Cl)cc2Cl)o1)c1c(C)[nH][nH]c1=O
    50µM*, 2
CCCCCCN(C(=O)CCCCCN1C(=O)NC(c2ccc(-c3ccccc3)cc2)C(C(=O)OCc2ccccc2)=C1C)C(C(=O)NCCCC)c1ccc(OCC(=O)OC)cc1 (stereo unspecified)
    7%&25%, -3
O=C(Nc1ccccc1)O[C@@H]1C[C@H]2CCC(=O)N3CC[C@@H](C1)[C@@H]23
    -3%, -20
O=C(CCC1CCCNC1)c1ccccc1 (stereo unspecified)
    -29%, 29
O=c1c2ccccc2oc2nc3ccn(Cc4ccncc4)c(=O)c3cc12
    9%, 2
Cc1cc(N2CCN(C3CCCC3)CC2)n2ncc(-c3ccccc3)c2n1
    18%, 1
c1coc(-c2nnc(-c3ccc4c(c3)OCO4)o2)c1
    5%, 10
CC(C)OC(=O)c1c(NC(=O)c2cnn3c2NC(c2ccccc2)CC3C(F)F)sc2c1CCCC2 (stereo unspecified)
    2%, 7
O=C(O)c1ccc(Cn2c(SCc3cc(=O)n4cc(Br)ccc4n3)nc3ccsc3c2=O)cc1
    -9%, 11
Cn1c(=O)c2[nH]c(-c3ccccc3O)nc2n(C)c1=O
    3%, 6
COc1ccccc1Nc1nc(-c2sc(NC(=O)c3ccc([N+](=O)[O-])cc3)nc2C)cs1
    -9%, -3
COc1ccc(O[C@H]2C=C[C@@H](c3ccccc3)O[C@@H]2CO/N=C(\C)CCN2CCc3nc(-c4ccccc4)c(-c4ccccc4)cc3C2)cc1
    -2%&-1%, -13
Cc1cc2cc(C)c3nnc(SCC(=O)N4CCCc5ccccc54)n3c2cc1C
    5%, 2
Cc1ccc2[nH]c(=O)c(CN(CC3CCCO3)C(=O)c3ccco3)cc2c1 (stereo unspecified)
    21%, 7
O=C1NN(c2ccccc2)C(=O)/C1=C/c1cccs1
    9%, -1
CCN1C/C(=C\c2cccc(C)c2)c2nc3ccccc3c(C(=O)O)c2C1
    79µM*, -6
O=C(CC1Oc2ccccc2NC1=O)NC1CC1 (stereo unspecified)
    25%, 8
O=C1[C@@H]2[C@H](Cc3ccc(O)cc3)N[C@]3(C(=O)Nc4ccccc43)[C@@H]2C(=O)N1c1ccc(F)cc1
    13%, 9
Cn1c(SCCC#N)nnc1-c1ccc(F)cc1
    20%, 1
CCCN1C(=O)S/C(=C\c2ccc(N3CCOCC3)cc2C)C1=O
    0%, -6
O=C(c1cccnc1)N1CCC(c2nc3ccccc3[nH]2)CC1
    11%, 16
CCc1cccc(NC(=O)CSc2nc3c(c(=O)[nH]2)CCCC3)c1
    11%, 3
COc1ccc(NC(=O)Cn2cnc3c(nnn3-c3ccc(C)cc3)c2=O)cc1
    -2%, -23
CC(C)Cc1nc2oc3c(N4CCN(C)CC4)ncnc3c2c2c1CCCC2
    2%, 9
Cc1ccccc1C(=O)NNC(=O)Nc1ccccc1
    16%, 3
Cc1cccn2c(=O)c3cc(C(=O)NCCCN4CCOCC4)n(C)c3nc12
    10%, -1
CC(C)OC(=O)CCC/C=C\C[C@@H]1[C@@H](CC[C@@H](O)CCc2ccccc2)[C@H](O)C[C@@H]1O
    4%, -4
CN(C)CCNC(=O)Cc1c(C(=O)O)n(C)c2ccccc12
    4%, 3
O=c1[nH]cc(N=Cc2cc([N+](=O)[O-])ccc2O)c(=O)[nH]1
    -3%, -14
Cc1ccccc1NC(=O)COC(=O)c1cc(=O)c2ccccc2o1
    24%, 5
CC(=O)Nc1ccc(NC(=O)Cn2cc3c(n2)CCC(C)C3)cc1 (stereo unspecified)
    10%, 9
CCCOC(=O)c1ccc(NC(=O)c2cn(CC)c3nc(C)ccc3c2=O)cc1
    21%, 4
COc1ccc(N2CCN(C(=O)c3ccc4c(c3)NC(=O)C(CSCc3ccc(C)cc3)N4)CC2)cc1 (stereo unspecified)
    40µM*, 2
CC(C)=CCC/C(C)=C/CCC(C)NCCN1CCNCC1 (stereo unspecified)
    12%, -6
COc1ccc(N2C(=O)N(Cc3cccc(F)c3)c3ccccc3S2(=O)=O)cc1
    16%, 9
C#CCOCCOCCOCCNc1nc(N2CCN(C(=O)[C@H](Cc3cc4ccccc4[nH]3)n3cc([C@@H](N)C(C)CC)nn3)CC2)nc(N2CCN(C(=O)[C@H](Cc3cc4ccccc4[nH]3)n3cc([C@@H](N)Cc4ccc(O)cc4)nn3)CC2)n1 (stereo partly specified)
    50µM*, -1
COc1ccc(CCn2c(C)ccc2C)cc1OC
    14%, 3
CC(C)(C)C(=O)[C@@H]1[C@@H]2C(=O)N(Cc3ccccc3)C(=O)[C@@H]2[C@H]2c3ccccc3C=CN12
    -7%, 3
CCCCNc1c(N)n(CCCC)c(=O)[nH]c1=O
    3%, 3
O=C(NC1CCCCC1)c1ccc(Cl)c(NC(=O)c2ccccc2F)c1
    27%, -12
CN1CCc2c(sc(NC(=O)c3ccc(S(=O)(=O)N4CCc5ccccc54)cc3)c2C(N)=O)C1
    ?, -3
CCOC(=O)c1c(C)[nH]c(C(=O)Nc2ccc(C)c(Cl)c2)c1C
    28%, -17

# Screens from PubChem BioAssay.
